Vaccinia stage = Vaccinia orthopox stage-specific inhibition; Vaccinia-infected cells, mCherry/Venus stage reporter fluorescence; stronger effect = lower value; some inactives read as strong as hits; activity change (mCherry), % (no concentration beside the values); 89,000 compounds, 0.01% hits;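 active = mCherry past -33% and 40 or more points under the early reporter, replicates agreeing; inconclusive = past -33% without that gap or agreement; tested in A549 cells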;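 also: scaled between vehicle wells and reference inhibitor wells; 23 nL library stock went into each well; one replicate is shown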
Vaccinia stage Venus = further read-out of Vaccinia stage, marked with its call; activity change (Venus), %; measured here: Venus reporter, other viral stage;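 negative = less Venus signal; first of two replicates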
Starred values were filed as active, the others as inactive. These rows are one share of the data (hit frequency here may not be typical).

The opening two compounds as a preview:
CCCN1[C@H](C(=O)N[C@@H](C)c2ccccc2)[C@@H](CO)[C@@H]2Cn3c(ccc(-c4cccc(F)c4)c3=O)[C@@H]21 was read as Vaccinia stage -19 and Vaccinia stage Venus -2.
`COc1ccc(CNC(=O)C[C@@H]2C[C@@H]3c4cc(NS(C)(=O)=O)ccc4O[C@@H]3[C@H](CO)O2)cc1` gave Vaccinia stage 9 and Vaccinia stage Venus 13.

All compounds of this part, from the start:
CCCN1[C@H](C(=O)N[C@@H](C)c2ccccc2)[C@@H](CO)[C@@H]2Cn3c(ccc(-c4cccc(F)c4)c3=O)[C@@H]21 was read as Vaccinia stage -19 and Vaccinia stage Venus -2.
`COc1ccc(CNC(=O)C[C@@H]2C[C@@H]3c4cc(NS(C)(=O)=O)ccc4O[C@@H]3[C@H](CO)O2)cc1` gave Vaccinia stage 9 and Vaccinia stage Venus 13.
C[C@H](CO)N1C[C@H](C)[C@H](CN(C)C(=O)c2ccncc2)Oc2ncc(C#CC3CCCC3)cc2C1=O was read as Vaccinia stage -5 and Vaccinia stage Venus -2.
For CCC(=O)N1CC(=O)N2[C@H](CO)[C@H](c3ccc(C#CC4CCCCC4)cc3)[C@H]2C1 the results were Vaccinia stage inconclusive.
For COc1ccc(NC(=O)N(C)C[C@@H]2Oc3ncc(C#Cc4ccc(F)cc4)cc3C(=O)N([C@H](C)CO)C[C@@H]2C)cc1 the results were Vaccinia stage inconclusive.
For COc1ccccc1S(=O)(=O)N[C@@H]1C=C[C@H](CC(=O)N2CCOCC2)O[C@@H]1CO the results were Vaccinia stage -1 and Vaccinia stage Venus 4.
Screening COc1ccc2c3c(n(C)c2c1)[C@@H](CO)N(C(=O)Nc1ccc(F)cc1)CC31CN(Cc2ccccn2)C1 returned Vaccinia stage -4 and Vaccinia stage Venus 4.
O=C(C[C@H]1CC[C@H](NC(=O)C2CC2)[C@@H](CO)O1)NCc1ccncc1 was read as Vaccinia stage -4 and Vaccinia stage Venus -4.
Screening O=C(Cc1ccccc1)N1CC(=O)N2[C@H](C1)[C@@H](c1ccc(Br)cc1)[C@@H]2CO returned Vaccinia stage 10 and Vaccinia stage Venus 1.
C[C@H]1CN([C@@H](C)CO)S(=O)(=O)c2ccc(-c3ccncc3)cc2O[C@H]1CN(C)Cc1cncnc1 was read as Vaccinia stage 11 and Vaccinia stage Venus -5.
CC(C)CC#Cc1ccc2c(c1)O[C@@H](CN(C)C(=O)Nc1ccccc1)[C@H](C)CN([C@H](C)CO)S2(=O)=O was read as Vaccinia stage inconclusive.
For C[C@@H]1CN([C@@H](C)CO)C(=O)c2cccc(NC(=O)C3CC3)c2O[C@@H]1CN(C)C(=O)Nc1ccc(F)cc1 the results were Vaccinia stage -6 and Vaccinia stage Venus -3.
`O=C(O)CCCCCCC(=O)Nc1ccc(C2OC(CSCCO)CC(c3ccccc3)O2)cc1` (stereo unspecified) gave Vaccinia stage 13 and Vaccinia stage Venus 3.
`C[C@H]1CN([C@@H](C)CO)C(=O)c2cccc(NC(=O)C3CCOCC3)c2O[C@H]1CN(C)S(=O)(=O)c1ccc(F)cc1` gave Vaccinia stage 18 and Vaccinia stage Venus 17.
CC(C)CC#Cc1cnc2c(c1)C(=O)N([C@H](C)CO)C[C@H](C)[C@H](CN(C)C(=O)Cc1ccccc1)O2 was read as Vaccinia stage -20 and Vaccinia stage Venus -16.
Screening CCNC(=O)C[C@@H]1CC[C@@H]2[C@H](COC[C@H](O)CN2C(=O)C2CC2)O1 returned Vaccinia stage 6 and Vaccinia stage Venus 12.
For O=C(C1CCCCC1)N1CC(=O)N2[C@H](CO)[C@H](c3ccc(C#CCc4ccccc4)cc3)[C@H]2C1 the results were Vaccinia stage 0 and Vaccinia stage Venus 1.
For CN(C)C(=O)c1ccc(-c2ccc([C@H]3[C@@H](CO)N4C(=O)CN(C(=O)CC5CC5)C[C@@H]34)cc2)cc1 the results were Vaccinia stage 6 and Vaccinia stage Venus -1.
Screening C[C@@H]1CN([C@H](C)CO)C(=O)c2cc(NC(=O)Nc3ccc(C(F)(F)F)cc3)ccc2O[C@H]1CN(C)C(=O)NC1CCCCC1 returned Vaccinia stage -12 and Vaccinia stage Venus -12.
Screening O=C(C[C@@H]1CC[C@H]2[C@@H](COC[C@H](O)CN2Cc2cccc(F)c2)O1)NCc1ccncc1 returned Vaccinia stage -3 and Vaccinia stage Venus -7.
For C[C@@H]1CN([C@@H](C)CO)C(=O)c2cc(NS(C)(=O)=O)ccc2O[C@@H](C)CCCCO[C@@H]1CN(C)S(=O)(=O)c1cn(C)cn1 the results were Vaccinia stage 9 and Vaccinia stage Venus 4.
For CCC(=O)Nc1ccc2c(c1)OC[C@H](C)N(C(=O)c1ccccn1)C[C@H](C)[C@@H](OC)CN(C)C2=O the results were Vaccinia stage 0 and Vaccinia stage Venus -1.
O=C(C[C@H]1C[C@H]2c3cc(NC(=O)C4CCC4)ccc3O[C@H]2[C@@H](CO)O1)NCC1CC1 was read as Vaccinia stage 5 and Vaccinia stage Venus 3.
For O=C(C[C@@H]1CC[C@@H]2[C@H](COC[C@@H](O)CN2Cc2ccccc2F)O1)NCc1ccccc1F the results were Vaccinia stage -3 and Vaccinia stage Venus 4.
For O=C(C[C@@H]1CC[C@H]2[C@@H](COC[C@@H](O)CN2CCc2ccccc2)O1)NCCCN1CCOCC1 the results were Vaccinia stage 25 and Vaccinia stage Venus 16.
For CCCN1C[C@@H](C)[C@@H](OC)CN(C)C(=O)c2ccc(NC(=O)C3CCOCC3)cc2OC[C@H]1C the results were Vaccinia stage 1 and Vaccinia stage Venus 6.
`CCC(=O)Nc1ccc2c(c1)C(=O)N(C)C[C@@H](OC)[C@@H](C)CN(C(=O)CC1CC1)[C@@H](C)CO2` gave Vaccinia stage 8 and Vaccinia stage Venus 6.
`O=C(C[C@@H]1CC[C@H](NC(=O)C2CCOCC2)[C@H](CO)O1)Nc1ccc(-c2ccccc2)cc1` gave Vaccinia stage -1 and Vaccinia stage Venus 5.
`C[C@H]1CN([C@@H](C)CO)C(=O)c2cccc(NS(=O)(=O)c3ccc(Cl)cc3)c2O[C@@H]1CN(C)C(=O)Nc1ccccc1` gave Vaccinia stage -2 and Vaccinia stage Venus -4.
Screening C[C@H](CO)N1C[C@H](C)[C@@H](CN(C)C)Oc2ccc(NC(=O)NC3CCCCC3)cc2CC1=O returned Vaccinia stage 21 and Vaccinia stage Venus 15.

Seven records drawn at random from those above:
Screening C[C@@H]1CN([C@H](C)CO)C(=O)c2cc(NC(=O)Nc3ccc(C(F)(F)F)cc3)ccc2O[C@H]1CN(C)C(=O)NC1CCCCC1 returned Vaccinia stage -12 and Vaccinia stage Venus -12.
Screening CCNC(=O)C[C@@H]1CC[C@@H]2[C@H](COC[C@H](O)CN2C(=O)C2CC2)O1 returned Vaccinia stage 6 and Vaccinia stage Venus 12.
`O=C(C[C@@H]1CC[C@H](NC(=O)C2CCOCC2)[C@H](CO)O1)Nc1ccc(-c2ccccc2)cc1` gave Vaccinia stage -1 and Vaccinia stage Venus 5.
For O=C(C[C@@H]1CC[C@H]2[C@@H](COC[C@@H](O)CN2CCc2ccccc2)O1)NCCCN1CCOCC1 the results were Vaccinia stage 25 and Vaccinia stage Venus 16.
For O=C(C1CCCCC1)N1CC(=O)N2[C@H](CO)[C@H](c3ccc(C#CCc4ccccc4)cc3)[C@H]2C1 the results were Vaccinia stage 0 and Vaccinia stage Venus 1.
O=C(C[C@H]1C[C@H]2c3cc(NC(=O)C4CCC4)ccc3O[C@H]2[C@@H](CO)O1)NCC1CC1 was read as Vaccinia stage 5 and Vaccinia stage Venus 3.
For C[C@@H]1CN([C@@H](C)CO)C(=O)c2cc(NS(C)(=O)=O)ccc2O[C@@H](C)CCCCO[C@@H]1CN(C)S(=O)(=O)c1cn(C)cn1 the results were Vaccinia stage 9 and Vaccinia stage Venus 4.

(list continues)
CN1c2ccc(Br)cc2[C@H]2[C@H](CCN2S(=O)(=O)c2ccccc2F)[C@H]1CO was read as Vaccinia stage -30 and Vaccinia stage Venus -24.
C[C@H]1CCCCO[C@@H](CN(C)C(=O)C2CCCCC2)[C@@H](C)CN([C@@H](C)CO)C(=O)c2cc(NC(=O)C3CCCCC3)ccc2O1 was read as Vaccinia stage inconclusive.
For COCC(=O)N(C)C[C@@H]1Oc2ncc(C#CC(C)(C)O)cc2C(=O)N([C@H](C)CO)C[C@@H]1C the results were Vaccinia stage 4 and Vaccinia stage Venus 3.
`COc1ccc2c3c([nH]c2c1)[C@H](CO)N(C(=O)C1CCC1)CC31CN(C(=O)NC(C)C)C1` gave Vaccinia stage 7 and Vaccinia stage Venus 3.
`COc1ccc(S(=O)(=O)N(C)C[C@@H]2OCc3ccccc3-c3c(n(C)c4ccccc34)C(=O)N([C@H](C)CO)C[C@@H]2C)cc1` gave Vaccinia stage inconclusive.
`CO[C@@H]1CN(C)C(=O)c2cc(NC(=O)Nc3ccccc3F)ccc2OC[C@H](C)NC[C@@H]1C` gave Vaccinia stage 3 and Vaccinia stage Venus 5.
For Cc1noc(C)c1S(=O)(=O)Nc1ccc2c(c1)C(=O)N([C@H](C)CO)C[C@@H](C)[C@H](CN(C)C(=O)Nc1ccc3c(c1)OCO3)O2 the results were Vaccinia stage 9 and Vaccinia stage Venus 0.
CNC[C@@H]1OCCCC[C@@H](C)Oc2ccc(NS(=O)(=O)c3ccc(F)cc3)cc2C(=O)N([C@H](C)CO)C[C@@H]1C was read as Vaccinia stage 4 and Vaccinia stage Venus 6.
C[C@H](CO)N1C[C@H](C)[C@H](CN(C)Cc2ccc(C(=O)O)cc2)Oc2ccc(NC(=O)C3CCCCC3)cc2C1=O was read as Vaccinia stage 13 and Vaccinia stage Venus 7.
`CN1CCN(C(=O)C[C@@H]2C=C[C@@H](NC(=O)Cc3ccccn3)[C@@H](CO)O2)CC1` gave Vaccinia stage 12 and Vaccinia stage Venus 8.
Screening COc1ccc(NC(=O)N(C)C[C@@H]2OCCCC[C@@H](C)Oc3ccc(NC(=O)Cc4ccccc4)cc3C(=O)N([C@H](C)CO)C[C@@H]2C)cc1 returned Vaccinia stage 6 and Vaccinia stage Venus 3.
CN(C)CC(=O)N[C@@H]1CC[C@@H](CC(=O)NCc2ccc(Cl)cc2)O[C@H]1CO was read as Vaccinia stage -8 and Vaccinia stage Venus 7.
Screening CN1CCN(C(=O)C2=C[C@H](c3coc4ccccc4c3=O)C[C@H](OCCCCO)O2)CC1 returned Vaccinia stage 10 and Vaccinia stage Venus 8.
Screening CC(=O)N1CC[C@@H]2[C@H]1c1cc(-c3cccc(F)c3)ccc1N[C@@H]2CO returned Vaccinia stage 27 and Vaccinia stage Venus 3.
For CO[C@H]1CN(C)C(=O)c2ccc(NC(=O)C3CC3)cc2OC[C@H](C)N(C(=O)CN2CCOCC2)C[C@H]1C the results were Vaccinia stage 2 and Vaccinia stage Venus 1.
Screening COc1ccccc1NC(=O)N1CCCCN2[C@H](CO)[C@H](c3ccc(-c4cccc(C#N)c4)cc3)[C@H]2C1 returned Vaccinia stage inconclusive.
Screening C/C=C/c1ccc([C@H]2[C@@H](CO)N3C(=O)CN(Cc4ccc(C(=O)OC)cc4)C[C@H]23)cc1 returned Vaccinia stage -12 and Vaccinia stage Venus -7.
For CO[C@H]1CC[C@@H]2CCN(C)C(=O)C[C@@H](c3ccccc3)CN(C)C(=O)c3cc(C#N)ccc3OC[C@H]1O2 the results were Vaccinia stage 11 and Vaccinia stage Venus 7.
For C[C@@H]1CN([C@@H](C)CO)C(=O)CCCn2cc(nn2)CO[C@H]1CN(C)Cc1cccc(O)c1 the results were Vaccinia stage 3 and Vaccinia stage Venus -2.
For COc1ccc(NC(=O)Nc2ccc3c(c2)C(=O)N([C@H](C)CO)C[C@H](C)[C@H](CN(C)Cc2ccc(C(=O)O)cc2)OCCCC[C@H](C)O3)cc1 the results were Vaccinia stage 12 and Vaccinia stage Venus 1.
`COc1ccc(NC(=O)Nc2ccc3c(c2)C(=O)N([C@@H](C)CO)C[C@H](C)[C@H](CN(C)C(=O)Nc2ccc(F)cc2)OCCCC[C@H](C)O3)cc1` gave Vaccinia stage -7 and Vaccinia stage Venus -1.
Screening O=C(C[C@@H]1CC[C@@H]2[C@H](COC[C@H](O)CN2C(=O)Nc2ccc(Cl)cc2)O1)NC1Cc2ccccc2C1 returned Vaccinia stage -19 and Vaccinia stage Venus -6.
Screening O=C(C[C@@H]1CC[C@@H](NC(=O)Cc2ccccn2)[C@@H](CO)O1)NCCc1ccccc1 returned Vaccinia stage 18 and Vaccinia stage Venus 15.
Screening COc1ccc(CNC(=O)C[C@H]2CC[C@H](NC(=O)CN(C)C)[C@@H](CO)O2)cc1 returned Vaccinia stage -3 and Vaccinia stage Venus -8.
CC(C)NC(=O)N[C@H]1CC[C@@H](CCn2cc(-c3ccc(F)cc3)nn2)O[C@H]1CO was read as Vaccinia stage -10 and Vaccinia stage Venus -7.
`COCC(=O)Nc1ccc2c(c1)[C@H]1C[C@H](CC(=O)NCc3ccc(OC)cc3)O[C@@H](CO)[C@H]1O2` gave Vaccinia stage 15 and Vaccinia stage Venus 13.
COc1ccccc1NC(=O)N1C[C@H]2[C@@H](c3ccccc31)[C@@H](CO)N2C(=O)C1CC1 was read as Vaccinia stage -14 and Vaccinia stage Venus 8.
O=C(CN1CCOCC1)N[C@H]1CC[C@H](CCNS(=O)(=O)c2ccccc2F)O[C@H]1CO was read as Vaccinia stage 5 and Vaccinia stage Venus 7.
For C[C@H]1CN([C@@H](C)CO)C(=O)c2cccc(NC(=O)NC3CCCCC3)c2O[C@@H]1CN(C)S(=O)(=O)c1ccc(F)cc1 the results were Vaccinia stage -11 and Vaccinia stage Venus -11.
C[C@@H]1CN([C@H](C)CO)C(=O)Cc2cc(NS(=O)(=O)c3cn(C)cn3)ccc2O[C@H]1CN(C)S(=O)(=O)c1cccs1 was read as Vaccinia stage -2 and Vaccinia stage Venus 1.
Screening CO[C@@H]1CN(C)C(=O)c2cc(C#N)ccc2OC[C@H]2O[C@@H](CC[C@H]2OC)CCN(C)C(=O)[C@H]1C returned Vaccinia stage 6 and Vaccinia stage Venus -7.

High-throughput results as filed in PubChem.
